# NPR1 antag: Natriuretic polypeptide receptor (hNpr1) antagonism - Primary qHTS. AID 1347048, 2019. Potency, µM (top dose mostly 46.3 µM), for inactives: top-dose activity change, negative = inhibition, most hits filed as inhibitors. 1.6% of 76,000 active. HEK293 hNpr1 GloSensor cGMP, ANP-stimulated luminescence. Atrial natriuretic peptide receptor 1 (Homo sapiens), P16066; active = well fitted inhibition curve with a large enough effect; inconclusive = small, poorly fitted or top-dose-only effect; inactive = no such curve, though single readings can be large or run the other way;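 further: nearly all actives have a fitted effect of over 60% in size; nearly all hits also lower the signal before the agonist is added; a reference antagonist and vehicle were the controls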
# Target sequence (P16066 whole entry, looked up): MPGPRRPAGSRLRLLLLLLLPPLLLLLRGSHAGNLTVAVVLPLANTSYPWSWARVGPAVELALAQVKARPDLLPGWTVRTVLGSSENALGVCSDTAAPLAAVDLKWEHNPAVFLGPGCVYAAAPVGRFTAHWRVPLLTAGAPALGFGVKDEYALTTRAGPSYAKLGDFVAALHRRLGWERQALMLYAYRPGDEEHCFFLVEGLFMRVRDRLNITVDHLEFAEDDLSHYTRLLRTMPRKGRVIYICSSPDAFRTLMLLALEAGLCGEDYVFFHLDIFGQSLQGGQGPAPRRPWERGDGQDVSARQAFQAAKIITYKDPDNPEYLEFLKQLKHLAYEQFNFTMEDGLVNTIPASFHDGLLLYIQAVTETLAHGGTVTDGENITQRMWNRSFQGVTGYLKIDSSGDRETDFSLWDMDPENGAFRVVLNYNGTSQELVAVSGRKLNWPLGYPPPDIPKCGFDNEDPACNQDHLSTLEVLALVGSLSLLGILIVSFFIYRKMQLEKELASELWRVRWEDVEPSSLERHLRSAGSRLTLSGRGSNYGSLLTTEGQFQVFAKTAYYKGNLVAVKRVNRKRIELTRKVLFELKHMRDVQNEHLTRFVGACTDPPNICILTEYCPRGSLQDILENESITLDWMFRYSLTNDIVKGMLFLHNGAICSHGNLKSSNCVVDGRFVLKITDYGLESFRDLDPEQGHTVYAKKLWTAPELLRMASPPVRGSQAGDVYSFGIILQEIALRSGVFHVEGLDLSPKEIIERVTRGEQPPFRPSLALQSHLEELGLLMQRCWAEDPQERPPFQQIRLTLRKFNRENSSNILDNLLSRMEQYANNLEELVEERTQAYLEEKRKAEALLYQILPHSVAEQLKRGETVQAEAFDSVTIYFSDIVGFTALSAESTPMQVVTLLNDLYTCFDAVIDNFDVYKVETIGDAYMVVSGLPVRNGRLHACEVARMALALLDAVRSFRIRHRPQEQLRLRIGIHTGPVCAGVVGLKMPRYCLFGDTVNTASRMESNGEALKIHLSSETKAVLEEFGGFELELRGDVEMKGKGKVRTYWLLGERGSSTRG
#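 HEK293 cells stably expressing human Npr1 and cGMP GloSensor pGS-40F, loaded 2 h with 2% GloSensor reagent, given compound 30 min at room temperature. Luminescence read before and 20 min after 0.1 nM hNppA.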
# An asterisk follows results filed as active; u = inconclusive; & = joins results of further samples; [ ] = remark or other dose. On the % scale 0 is the no-effect control and ±100 the full control effect; potency means the concentration at half of the fitted maximal effect. These rows are one share of the data; the hit share may differ from the screen's.
structure | NPR1 antag
O=C1NCCCCCCN(C(=O)c2ccco2)[C@H]2C[C@H](C(=O)N3CCc4ccccc4C3)C[C@@H]12 | 0%
CCCN(Cc1ccc(S(=O)(=O)NC)cc1)Cc1ccccc1OC | 4%
O=C(NCc1ccc2c(c1)OCO2)c1ccc2c(c1)N(C(=O)c1ccc(F)cc1)CC2 | -30%
Cc1nc(N2CCCC2)nc(N2CCC3(CC2)OCCCC3O)c1C (stereo unspecified) | 0%
COc1ccc(C(=O)C2CCCN(Cc3csc(C(C)=O)c3)C2)c(OC)c1 (stereo unspecified) | 3%
O=C(c1cccnc1)N1CCC(OC2CCN(Cc3cccnc3)CC2)CC1 | 0%
COc1cc(-c2[nH]ncc2CN2CCCC2c2ccccn2)cc(OC)c1OC (stereo unspecified) | -8%
Cn1cc(CN2C[C@@H](F)[C@@H](OCc3nc4ccc(F)cc4[nH]3)C2)cn1 | 5%[70.6 µM]
COc1ccc2cc(C(=O)NCC(=O)N3CCCCCCNC(=O)CC3c3ccccc3)[nH]c2c1 (stereo unspecified) | -4%
CC1(CNc2ccccc2)COc2ccc(C(=O)Nc3ccc4[nH]ccc4c3)cc2N1 (stereo unspecified) | -28%[70.6 µM]

# Arranged by count of non-hydrogen atoms (falling): part of the list above.
structure | NPR1 antag
COc1ccc2cc(C(=O)NCC(=O)N3CCCCCCNC(=O)CC3c3ccccc3)[nH]c2c1 (stereo unspecified) | -4%
O=C1NCCCCCCN(C(=O)c2ccco2)[C@H]2C[C@H](C(=O)N3CCc4ccccc4C3)C[C@@H]12 | 0%
O=C(NCc1ccc2c(c1)OCO2)c1ccc2c(c1)N(C(=O)c1ccc(F)cc1)CC2 | -30%

# Continued:
structure | NPR1 antag
CN(Cc1ccsc1)Cc1nc(C(c2ccccc2)c2ccccc2)no1 | -1%
COCc1nc(CCNS(=O)(=O)c2ccc(OC)cc2)no1 | 0%
COc1ccc(C2(C(=O)N3CC(CO)C4(CCNCC4)C3)CCCCC2)cc1 (stereo unspecified) | 5%
CCc1nc2nccc(-c3ccsc3)n2n1 | 8%
Cc1noc([C@H]2CCN(CC3CC3)C[C@H]2NC(=O)C2CCOCC2)n1 | 4%
CC(C)SCC(=O)N1CCCC(N2CCN(c3ccc(F)cc3)CC2)C1 (stereo unspecified) | 0%
Cc1ccc(NC(=O)N[C@H]2C[C@@](O)(C(=O)N[C@H]3CCCNC3=O)C[C@@H](O)[C@@H]2O)cc1 | 4%[70.6 µM]
COc1ccc(C(=O)N[C@@H]2CCC[C@@H]2C(=O)N(C)CCc2ccccn2)cn1 | 5%
O=C(NCCN1CCOCC1)c1noc(-c2ccccc2F)n1 | -4%
O=C(c1cccnc1OC1CCN(Cc2ccccn2)C1)N1CCOCC1 (stereo unspecified) | -4%
O=C1[C@@H]2C[C@@H](O)CN2C2(CN(Cc3c[nH]c4ccccc34)C2)C(=O)N1Cc1ccccc1F | 3%
O=C(CCc1cc2n(n1)CCCNC2)Nc1ccc(-n2cncn2)cc1 | 12%
COc1ccc(C(=O)N[C@@H]2CCC[C@@H]2C(=O)NCCN2CCCCC2)cn1 | 1%
COC(=O)[C@@H]1C[C@@H](NS(=O)(=O)c2ccc(C(F)(F)F)cc2)CN1C | 3%
COc1cc(C)c2c(c1C)C[C@H](C(C)C(=O)NCc1cccs1)CC2 (stereo partly specified) | -9%[70.6 µM]
CCCCCC(=O)N1CC[C@H]2COC(=O)N2c2cc(F)ccc2C1 | 0%[70.6 µM]
COc1ccc(-c2cc(N3CCC(NC(=O)c4cccc(C)c4)CC3)n[nH]2)cc1 | -21%
COc1ccc(S(=O)(=O)NC[C@H]2O[C@@H](CO)[C@@H](O)[C@H]2N2CCCC2)cc1 | 5%[70.6 µM]
COCCn1c(C)cc(C(=O)N2CCC[C@H](n3c(=O)n(C)c4cccnc43)C2)c1C | 2%
O=C1CCN(C(=O)C2(c3ccccc3)CC2)CCCCCCN1 | 2%
COc1ccccc1CNC(=O)c1c(C)sc2ccn(Cc3ccc(F)cc3)c(=O)c12 | -2%
Cc1ccc(-c2ccc3nnc(CNC(=O)c4nccc5ccccc45)n3n2)cc1 | -10%
Cc1nn(C(=O)CCCC(=O)N2CCC(CCOc3ccccc3)C2)c2ccccc12 (stereo unspecified) | -2%
CCOc1ccc2c(n1)CCN(C(=O)c1ccc(C)cc1)C2 | -11%
CCC(=O)N1CCc2c(C(=O)NCc3cc(OC)ccc3OC)cccc21 | -3%
COc1ccccc1CN1C[C@H](O)C[C@H]1c1nc(C2CC2)no1 | 3%[70.6 µM]
O=C(Cc1cccc(F)c1)N1CCCC(c2noc(COc3ccccc3)n2)C1 (stereo unspecified) | -19%
O=C(NCCC1=CCCCC1)C1(CCO)CCN(c2ncccn2)C1 (stereo unspecified) | -2%
CS(=O)(=O)N1C[C@H]2CCN(C(=O)c3c(F)cccc3F)C[C@H]21 | -1%
Cc1cc(C(=O)N2CCn3nc(C(O)CO)cc3C2)c2c(C)noc2n1 (stereo unspecified) | 7%
Cc1cc(NC(=O)CN2C(=O)NC3(CCCCC3)C2=O)ccc1Br | 0%
Cc1noc(C)c1-c1cc(-c2cccnc2)cn2cncc12 | -2%[70.6 µM]
COc1ccc(-n2nc(C3CCCN(C(=O)c4ccccc4)C3)[nH]c2=O)cc1 (stereo unspecified) | 15%
COc1cccc(CN2Cc3nc(-c4cc(F)cc(F)c4)ccc3OCC2=O)c1 | -10%[70.6 µM]
CC(=O)N1CCc2nn(CC(=O)Nc3cccc(F)c3)c(=O)cc2C1 | -4%
O=C(C1CCCC1)N1CCC2(C1)C(=O)N(CCc1ccccc1)c1ccccc12 (stereo unspecified) | -3%&-13%
O=C(Nc1cc(F)cc(F)c1)N1CCCC2(C1)Nc1cccnc1NC2=NC1CCCC1 (stereo unspecified) | -24%
O=C1CC2CCCC(C1)N2[S+](=O)([O-])c1cc(C(F)(F)F)cc(C(F)(F)F)c1 | 5%
O=C(NCc1nnc2c(-c3nc(C4CC4)no3)cccn12)c1ccc(F)cc1 | -1%
O=C(c1nc(-c2ccsc2)c2ccccn12)N1CCOCC1 | 21%[70.6 µM]
CN(C)C[C@H]1O[C@H](Cc2cc(CN(C)Cc3ccccc3)on2)CC[C@@H]1O | 1%[70.6 µM]
COCCn1c2c(c(=O)n1-c1ccccc1)CCN(C(=O)c1nc3ccccc3[nH]1)C2 | -10%[70.6 µM]
CN1CCCC1c1nc(C2CN(S(=O)(=O)c3ccc4c(c3)CCC4)C2)no1 (stereo unspecified) | -7%
Cc1ccc(C2Cn3nnc(C(=O)N4CCC(C(=O)Nc5ccc(C)c(F)c5)CC4)c3CO2)cc1 (stereo unspecified) | -11%
CC(C)CN(Cc1cccnc1)C1CN(C(=O)CC2CCCCC2)C1 | -16%
COCC1CN(C(C)=O)CC12CCN(C(=O)COc1ccc(Cl)cc1)CC2 (stereo unspecified) | 4%
O=C(c1ccsc1)N1CCC2(CC1)CC(N(Cc1ccccc1)C1CC1)CCO2 (stereo unspecified) | -6%
C[C@H]1[C@@H]2[C@@H](O)C([C@H](C)C(=O)NCc3ccccc3)CC[C@@]2(C)CC[C@@H]1NC(=O)c1ccccc1 (stereo partly specified) | 6%
COc1cccc(CN2CCOC3CCN(Cc4ccccc4Cl)CC3C2=O)c1 (stereo unspecified) | 5%[70.6 µM]
CCC(=O)N1CCC(c2noc(-c3ccccc3)n2)C1 (stereo unspecified) | -1%

# Gathered by group, those above with a CF3 group
structure | NPR1 antag
COC(=O)[C@@H]1C[C@@H](NS(=O)(=O)c2ccc(C(F)(F)F)cc2)CN1C | 3%
O=C1CC2CCCC(C1)N2[S+](=O)([O-])c1cc(C(F)(F)F)cc(C(F)(F)F)c1 | 5%

# The listing continues:
structure | NPR1 antag
O=C(N[C@H]1CO[C@H]2[C@@H]1OC[C@@H]2n1nnnc1Oc1ccc2c(c1)OCO2)c1ccc(C(F)(F)F)cc1 | 7.9µM*
Cc1ccc(CN2CCC(Oc3ccc4ncccc4c3)(C(=O)O)CC2)o1 | -1%
Cc1cccc(NC(=O)Cn2ccn3nc4c(c3c2=O)CCCC4)c1C | -15%
Cc1cccc(OCC(=O)NCCn2ccn3nc(-c4ccc(C)cc4C)cc3c2=O)c1 | -23%
COc1ccc(CC(=O)N2CC(c3nnc(-c4ccc(C)cc4)o3)C3(CCOCC3)C2)cc1 (stereo unspecified) | -1%
Cc1cnc(CC2CCN(C(=O)C3CCC3)C2)n1C1CC1 (stereo unspecified) | -6%
CCn1nccc1C(=O)N1CC(Oc2cccc(-c3nc(C)no3)c2)C1 | -3%
Cc1cccc(NC(=O)Cn2c(-c3cnccn3)nc(C)c(C)c2=O)c1C | -5%
C[S+](=O)([O-])c1ccc(-c2ncc3c(n2)OCCN(c2ccccc2)C3=O)cc1 | 3%[70.6 µM]
O=C1CC(c2ccccc2)N(C(=O)C2CC2)CCCN(C(=O)Nc2ccccc2F)CCN1 (stereo unspecified) | -5%
CN(Cc1noc2c1CCCC2)Cc1nnc(C2CC(N)C2)n1C (stereo unspecified) | -2%
O=C(O)c1ccccc1C(=O)N1Cc2[nH]cnc2C[C@H]1c1nc(-c2ccncc2)no1 | 11%[70.6 µM]
CN1CCN(C(=O)CCC[C@@H]2[C@H]3CCCN4CCC[C@@H](CN2Cc2ccccc2)[C@@H]34)CC1 | -1%
CCCS(=O)(=O)N1CC[C@@H]2C(=O)NCCCCCCN(Cc3ccncc3)[C@@H]2C1 | 0%
Cn1ccc(CN2CCC3(C2)NC(=O)c2ccccc2CO3)c1 (stereo unspecified) | 0%[70.6 µM]
Cc1cc(-c2cc(-c3cccs3)nc3c(C)noc23)ccn1 | -5%[70.6 µM]
COc1ccccc1CC(=O)N1CCCc2ncc(C(=O)NCCOc3ccccc3)cc21 | -8%
CN(Cc1ccccc1)Cc1cn([C@H]2CO[C@H]3[C@@H]2OC[C@@H]3NC(=O)Nc2cccc(C(F)(F)F)c2)nn1 | u
Cc1cc2nc3n(c(=O)c2n1CC(=O)N1CCN(c2ccccc2F)CC1)CCCCC3 | -11%
COCC(=O)NC[C@H]1OC[C@@H](N(Cc2ccncc2)Cc2ccncc2)[C@@H]1O | 5%[70.6 µM]
CCn1cc(S(=O)(=O)N2CCC(c3noc(-c4cccnc4)n3)C2)cn1 (stereo unspecified) | 2%
O=C1NC(C(=O)Nc2cccc(Cl)c2)Cn2cccc21 (stereo unspecified) | -13%
CN(C)[C@@H]1CN(C2CCCC2)CC[C@@H]1CO | 19%
CCCn1c(C)cnc1CC1CCCN(S(=O)(=O)c2cc(OC)ccc2OC)C1 (stereo unspecified) | -13%
COc1ccccc1C(=O)N1CCN(C(=O)c2nnn3c2COC(c2ccc(Cl)cc2)C3)CC1 (stereo unspecified) | -27%
O=C(c1ccncc1)N1CCC2(CC1)CC(N(Cc1ccccc1)C1CC1)CCO2 (stereo unspecified) | -7%
O=C(Nc1cccc2ccccc12)O[C@@H]1CO[C@H]2[C@@H]1OC[C@@H]2NC(=O)N1CCOCC1 | 1%[70.6 µM]
Cn1cc(CNC(=O)C[C@@H]2C[C@H]3O[C@H](CNCc4ccncc4F)[C@@H](O)[C@H]3O2)cn1 | 0%[70.6 µM]
COc1ccc(Cl)cc1C(=O)N1CCC2(CC1)NC(=O)N(c1cccc(F)c1)N2 | 5%
Cc1cc(C(=O)N2CCC(c3n[nH]c(=O)n3Cc3ccccc3)CC2)on1 | -2%
Cc1ccc(-c2ccc3nnc(CNC(=O)Cc4cccc(Cl)c4)n3n2)cc1 | 2%
CCc1cccc(NC(=O)N2CCC(OC3CCN(Cc4ccccc4)CC3)CC2)c1 | -2%
O=C(c1ccc(F)cc1)N1CCN(c2cc(-c3ccc(F)cc3)[nH]n2)CC1 | u
Cn1ccc(C(=O)N2CCC3(CC2)CC(=O)N(C/C=C/c2ccccc2)C3)n1 | 0%
CC(C)S(=O)(=O)N1CCC2(CC1)CC1C(=O)NCCN1C2 (stereo unspecified) | -6%
NC(=O)Cc1c[nH]c2ncc(-c3ccc(Oc4ccccc4)cc3)cc12 | 7.9µM*
O=C(NCCc1cccnc1)c1cccc2c1CCN2C(=O)Nc1ccc(F)cc1 | 11µM*
c1ccc(CCCc2noc(-c3ccc(N4CCOCC4)nc3)n2)cc1 | -24%
COCC1CN(C(C)=O)CC12CCN(Cc1c[nH]c3ccc(OC)cc13)CC2 (stereo unspecified) | -10%
COc1ccccc1CC(=O)N1CCC[C@H]1c1nc(-c2ccc(OC)c(OC)c2)no1 | 4%
CN1CCCN(C(=O)c2cn3ccnc(-c4ccccc4)c3n2)CC1 | 0%
CNC(=O)N1CCC(C2CCN(C(=O)c3cnn(C)c3)C2)CC1 (stereo unspecified) | 13%
CSCC[C@H](N)C(=O)N1CCC2(CCC(=O)N(Cc3ccccc3)C2)CC1 | 4%
Cc1nc(-c2c3n(c(=O)n(CCOc4ccccc4)c2=O)CCCCC3)no1 | -5%
CCCC1(CO)CCCN(Cc2cccc(N3CCOCC3)c2)C1 (stereo unspecified) | 1%

# At a glance, 3 of the compounds above:
structure | NPR1 antag
CSCC[C@H](N)C(=O)N1CCC2(CCC(=O)N(Cc3ccccc3)C2)CC1 | 4%
Cc1nc(-c2c3n(c(=O)n(CCOc4ccccc4)c2=O)CCCCC3)no1 | -5%
CCCC1(CO)CCCN(Cc2cccc(N3CCOCC3)c2)C1 (stereo unspecified) | 1%

# Source: PubChem BioAssay (National Center for Advancing Translational Sciences (NCATS))
